miR-21 FLuc = qHTS Assay for Modulators of miRNAs and/orActivators of miR-21; HeLa miR-21 FLuc reporter, luciferase, 48 h; Potency, µM (top dose mostly 38.3 µM), inactives show at the top dose reporter change, positive = more light; 340,000 tested, under 10 active; active = well fitted rising curve with a large enough effect; inconclusive = small, poorly fitted or top-dose-only effect; inactive = no such curve, though single readings can be large or run the other way;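 also: % of control where 0% means no effect; miR-21 action dims this reporter so a rising signal means less miR-21 action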
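Using DMEM plus 10% FBS, HeLa miR-21-FLuc cells are incubated with test compounds (final up to about 40uM) for 48 hours; firefly luciferase signal is then imaged following reagent-mediated lysis.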
GLA inh pH 4.5 = qHTS Assay for Inhibitors of Human alpha-Galactosidase at pH 4.5; purified enzyme, 4-MU-alpha-Gal fluorescence, pH 4.5; activity change, negative = inhibition, % at 105 µM; 230,000 tested, under 10 active; AID 1467, 2008; inconclusive = small, poorly fitted or top-dose-only inhibition, or a rising curve; inactive = flat fitted curve, though single readings scatter; no compound was filed as active;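 also: 0% = full activity with enzyme and -100% = basal without enzyme; dose as in the result columns while the protocol names 77 µM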
Target sequence (P06280 whole entry, looked up): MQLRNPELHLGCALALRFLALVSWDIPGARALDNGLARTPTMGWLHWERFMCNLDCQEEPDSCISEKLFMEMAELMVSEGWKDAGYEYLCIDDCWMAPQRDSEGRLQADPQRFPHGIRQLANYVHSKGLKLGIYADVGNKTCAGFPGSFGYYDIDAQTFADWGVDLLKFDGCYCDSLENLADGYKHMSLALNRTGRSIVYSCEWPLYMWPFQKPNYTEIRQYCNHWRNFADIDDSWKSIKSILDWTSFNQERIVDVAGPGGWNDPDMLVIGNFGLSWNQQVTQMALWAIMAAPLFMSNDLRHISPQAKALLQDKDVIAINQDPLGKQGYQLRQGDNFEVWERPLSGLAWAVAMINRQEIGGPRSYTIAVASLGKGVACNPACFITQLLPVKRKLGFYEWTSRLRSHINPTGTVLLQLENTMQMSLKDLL
Rango complex inh = qHTS Assay for Inhibitors of Rango (Ran-regulated importin-beta cargo) - Importin beta complex formation | Importin subunit beta-1 (Homo sapiens), Q14974 | Rango CFP/YFP FRET sensor + importin beta, 45 min | Potency, µM (highest dose often 92.2 µM), for inactives: top-dose inhibition of complex formation | actives 0.031% (n = 340,000); active = rising FRET ratio curve, often small or poorly fitted; inconclusive = mostly compound fluorescence or quenching in the first reads; inactive = flat curves in all reads;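 also: potency is read from the fitted curve at half-maximal effect; 0% = DMSO wells and 100% = buffer wells lacking importin beta; nearly all actives have a fitted effect of over 15% in size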
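FRET biosensor Rango (snurportin 1 IBB between N-terminal EYFP and C-terminal Cerulean), 50 nM in PBS/1 mM DTT/0.02% Tween-20/0.1% BSA, preincubated 5 min RT with compound; 0.125 microM importin beta added, 45 min RT, CFP/YFP FRET ratio read.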
Rango release inh = qHTS Assay for Inhibitors of RanGTP induced Rango (Ran-regulated importin-beta cargo) - Importin beta complex dissociation; Snurportin-1 (Homo sapiens) + GTP-binding nuclear protein Ran (Homo sapiens) + Importin …; Biochemical FRET Rango-importin beta, RanGTP-induced dissociation; Potency, µM (titrated, usually from 46.1 µM), inactives show at the top dose activity change, negative = inhibition; actives 0.071% (n = 340,000); active means falling FRET ratio curve, often poorly fitted, with flat reads before Ran was added; inconclusive means other falling curves, or compound fluorescence or quenching; inactive means flat or rising ratio curve;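 also: potency is read from the fitted curve at half-maximal effect; % of control where 0% means no effect; nearly all actives have a fitted effect of over 45% in size; -100% = wells without RanGTP and RCC1; the record marks most hits as doubtful in a second field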
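Two FRET readings bracket the reaction: one 5 min after compound meets Rango–importin beta, another 45 min after RanGTP-RCC1 (0.6 uM Ran, 0.2 uM RCC1, 2 mM GTP) is added. Only the second defines inhibition.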
* marks the source's active call; other numbers are inactive results; ? = inconclusive; . = no result given. A portion of the library; the hit share may differ from the screen's.

A first look, two compounds:
Value order – miR-21 FLuc | GLA inh pH 4.5 | Rango complex inh | Rango release inh
Cc1ccc(OCC(=O)N(Cc2ccco2)C2CCS(=O)(=O)C2)cc1C (stereo not given)
  -6% | . | 2.1% | -17%
O=C(Nc1ccccc1OC(F)F)c1cc2c(s1)CCC2
  -45% | 6 | ? | -19%

The listing, from the first entry:
Value order – miR-21 FLuc | GLA inh pH 4.5 | Rango complex inh | Rango release inh
Cc1ccc(OCC(=O)N(Cc2ccco2)C2CCS(=O)(=O)C2)cc1C (stereo not given)
  -6% | . | 2.1% | -17%
O=C(Nc1ccccc1OC(F)F)c1cc2c(s1)CCC2
  -45% | 6 | ? | -19%
O=C(Cn1cnc2ccccc21)N1CCc2ccccc21
  -10% | 6 | -1.1% | -7%
O=C(c1cc(-c2ccc(O)cc2)on1)N1CCCC1
  -45% | . | 6.2% | -7%
C=CCOc1c(CNc2ncn[nH]2)cccc1OC
  0% | 14 | 0.5% | 5%
CC1CN(C(=S)NC(=O)c2ccco2)CC(C)O1 (stereo not given)
  -1% | 4 | -0.8% | 9%
O=C(NCC(c1ccco1)N1CCCC1)c1cc(S(=O)(=O)N2CCOCC2)ccc1Cl (stereo not given)
  . | . | 5.7% | -10%
O=C(NCCCn1ccnc1)C(=O)c1cn(CC(=O)N2CCCCCC2)c2ccccc12
  -2% | -4 | 3.2% | 7%
N#Cc1ccc(-c2csc(NC(=O)c3ccc(N4C(=O)CCC4=O)cc3)n2)cc1
  5% | 9 | ? | ?
O=C1CSc2ccc(C(=O)NCCc3ccc(Cl)cc3Cl)cc2N1
  . | . | -2.8% | -12%
Cc1cccc(CN2C(=O)[C@@H]3Cc4c([nH]c5ccccc45)C(C)(C)N3C2=O)c1
  . | . | ? | -1%
Cc1ccc2nc(C)cc(C(=O)Nc3nccs3)c2c1
  5% | -25 | -1.7% | 1%
Cc1ccc(N(CC(=O)NC(C)C)C(=O)CCC(=O)Nc2ccccn2)cc1
  -3% | . | -1.1% | -4%
CCOC(=O)c1c(-c2cccc(C)c2)csc1NC(=O)C1CC=CCC1C(=O)O (stereo not given)
  1% | -8 | -0.7% | 2%
N#Cc1ccc(CSc2ncccn2)cc1
  -30% | . | 3.6% | 23%
O=C(CN1C(=O)NC(c2ccccc2)(c2ccccc2)C1=O)NCCNCCO
  -4% | . | 0.7% | ?
Cc1ccc(N2C(=O)CC(N3CCSCC3)C2=O)c(C)c1 (stereo not given)
  0% | -1 | -3.7% | 29%
CCC/C(=N\NC(=O)c1cccc(C)c1)c1ccccc1
  -28% | 4 | 3.1% | 1%
COC(=O)c1cc(N2C(=O)C3C4C=CC(CC4)C3C2=O)ccc1Cl (stereo not given)
  0% | . | 0.3% | 1%
COc1cc(C)nc(SCC(N)=O)n1
  -6% | 6 | -1.4% | 6%
O=C(NCc1ccco1)/C(=C/c1ccc(C(F)(F)F)cc1)c1nc2ccccc2[nH]1
  -46% | 1 | ? | 18µM*
Cc1nnnn1-c1ccc(CC(=O)O)cc1
  0% | 11 | 0.1% | 0%
CCC(=O)c1ccc(OCC(=O)Nc2ccccc2N2CCCCC2)cc1
  0% | . | -4.6% | -18%
COc1ccc2oc(C(=O)N(CC(C)C)C3CCS(=O)(=O)C3)c(C)c2c1 (stereo not given)
  . | . | -0.1% | -16%
COc1cc(C(=O)N[C@@H](Cc2c[nH]c3ccccc23)C(=O)O)cc(OC)c1OC
  4% | . | -3.1% | 1%
Cc1ccc(Nc2ncccc2C(N)=O)cc1[N+](=O)[O-]
  -89% | 2 | 7.3% | 17%
COc1ccc(C2(CNC(=O)c3ccccc3[N+](=O)[O-])CCOCC2)cc1
  -3% | 7 | ? | -28%
CC(C)NC(=S)N/N=C/c1sc(N2CCCCC2)nc1-c1cccs1
  -17% | 0 | ? | ?
COC(=O)c1nc(NC(=O)C(C)C)n[nH]1
  0% | 0 | 1.2% | -14%
O=C(CNCCO)NC12CC3CC(CC(C3)C1)C2
  -4% | 5 | -1.6% | 0%
COc1ccc(-c2nc3ccccc3o2)cc1NC(=O)c1ccc(Br)o1
  -7% | -12 | -3.4% | 2%
C=CCNC(=O)/C(C#N)=C/c1c(N2CCN(c3cccc(Cl)c3)CC2)nc2c(C)cccn2c1=O
  -4% | . | ? | ?
CCOc1ccc(C(=O)NCC(=O)OC2CCOC2=O)cc1OCC (stereo not given)
  0% | -8 | 1.1% | 8%
COc1cc(C2C3=C(CC(C)(C)CC3=O)OC3=C2C(=O)CC(C)(C)C3)cc([N+](=O)[O-])c1O
  -1% | 5 | -0.5% | 4%
O=C(N/N=C/c1ccc(O)cc1)c1ccc(NC(=O)c2ccccc2Br)cc1
  -2% | 1 | -4.5% | -17%
Cn1cc(CN2CCCC(C(=O)c3nccn3C)C2)c(-c2cccc(Cl)c2)n1 (stereo not given)
  -4% | -6 | 2.3% | 16%
CC(C)CCCN1C(Nc2ccccc2)=NC[C@@H]1CC(C)C
  16% | . | -0.1% | -6%
COC(=O)/C(C#N)=C/c1ccc(N2CCOCC2)c([N+](=O)[O-])c1
  0% | 1 | 2.2% | 2%
Cc1ccccc1OCC(=O)OCC(=O)Nc1ccc(N2CCOCC2)cc1
  1% | 2 | 3.9% | 15%
O=C(O)C1CCC(CNCc2ccccc2Cl)CC1 (stereo not given)
  -8% | 2 | -1.5% | -15%
Cc1ccc(C)c(S(=O)(=O)N2CCN(C(=O)CCC(=O)NCc3ccc(Cl)cc3Cl)CC2)c1
  . | . | 8.3% | -6%
Cc1cc(=O)n(C(C)(C)C)c(=O)n1Cc1ccccc1
  3% | . | -0.3% | 12%
COc1cc(C(=O)Nc2sc3c(c2C(=O)O)CCC(C)C3)cc(OC)c1OC (stereo not given)
  21% | . | 0.1% | -18%
Cc1nn(-c2ccccc2)nc1C(=O)NN
  -7% | -2 | 1.0% | -8%
O=C(CN1CCN(c2ccccn2)CC1)Nc1cccc(Cl)c1Cl
  2% | . | 5.1% | 13%
CCN=C1SC(CC(=O)Nc2ccc(N3CCOCC3)cc2)C(=O)N1CC (stereo not given)
  -4% | 1 | -0.9% | -15%
CCOC(=O)c1ccc(-n2c(C)nc3ccccc3c2=O)cc1
  -23% | -6 | 5.6% | -12%
O=C(COC(=O)CNC(=O)c1ccccc1Cl)Nc1ncc(C(F)(F)F)cc1Cl
  -4% | 1 | -0.1% | 2%
C[C@H]1COC(=O)[C@H](CC(=O)OC(C)(C)C)C/C=C\C[C@@H](CC(=O)NCCO)C(=O)N1
  . | . | -2.7% | 12%
CC(=O)NC1C(Oc2ccccc2C)OC2COC(c3ccco3)OC2C1O (stereo not given)
  -5% | -4 | -0.2% | 1%
N/C(=N\OC(=O)c1ccc(=O)n(Cc2ccc(Cl)cc2)c1)c1ccccn1
  13% | -6 | ? | 0%
CCN(CC)C(=O)CSc1ncccc1-c1nc2ccccc2[nH]1
  -13% | 4 | 2.0% | 11%
Nc1c(Cl)cc2c(c1Oc1ccccc1)C(=O)c1ccccc1C2=O
  -61% | -4 | -1.0% | 0%
Cc1ccc(N2CC(NC(=O)N3CCN(C(=O)c4ccco4)CC3)CC2=O)cc1 (stereo not given)
  . | . | 1.0% | -23%
NC(=O)C1CCN(CC(=O)Nc2ccccn2)CC1
  2% | 3 | -3.7% | 3%
O=c1[nH]c(CN2CCN(S(=O)(=O)c3ccc4ccccc4c3)CC2)nc2ccccc12
  -3% | -2 | -17% | -11%
O=C1C2C3CCCC3=C3CCCC3C2C(=O)N1c1ccc(F)cc1 (stereo not given)
  -4% | -2 | -2.3% | 1%
CC1CCN(C(=O)CSc2nc3ccccc3c(=O)[nH]2)CC1
  -10% | 4 | -2.9% | -3%
O=C1CN(C(=O)CSc2nc3c(cnn3-c3ccccc3)c(=O)[nH]2)c2ccccc2N1
  . | . | ? | 0%
O=C(Nc1nnc(-c2ccccc2)o1)c1nc2ccccc2s1
  3% | 3 | 0.7% | 5%

The list continues:
Value order – miR-21 FLuc | GLA inh pH 4.5 | Rango complex inh | Rango release inh
CN(CC(=O)Nc1ccc(F)c(F)c1F)C(=O)Cn1cnc2c1c(=O)n(C)c(=O)n2C
  . | . | 0.7% | -27%
O=C(NCc1ccc2c(c1)OCO2)c1ccc(Br)o1
  -27% | . | -0.6% | 3%
CCOC(=O)c1c(C)nc2c3ccccc3ccn12
  -49% | -2 | -1.6% | 1%
COc1cc(CCC(=O)OCC(=O)Nc2ccc3c(c2)OCO3)cc(OC)c1OC
  0% | . | 0.9% | -7%
O=S(=O)(c1ccccc1)c1nc(-c2ccccc2)oc1N1CCCC1
  -4% | -6 | -3.4% | 24%
O=C(O)C12CC3CC(C1)CC(n1ncc(N4CCN(c5ccccc5)CC4)c(Cl)c1=O)(C3)C2
  -6% | -2 | 0.2% | 8%
CC(=O)Nc1ccc(S(=O)(=O)N2CCN(CCc3ccccc3)CC2)cc1
  1% | . | 2.3% | 6%
COc1ccc(C2=CC(=O)OC3(CCCCC3)O2)cc1
  -9% | -12 | 0.2% | 25%
O=C(COC(=O)C1CCN(S(=O)(=O)c2cccs2)CC1)Nc1ccccc1
  3% | 7 | -0.7% | 10%
C=CCN1C2CCCC1CC(NC(=O)Nc1cccc(C(C)=O)c1)C2 (stereo not given)
  -10% | 1 | -0.8% | -2%
O=C(/C=C/c1cccc(Cl)c1)NCc1ccncc1
  -3% | 4 | -4.1% | 3%
O=C1CSc2ccc(S(=O)(=O)NCc3ccc(F)cc3)cc2N1
  -1% | . | 0.4% | 13%
COc1ccc(C(CNC(=O)c2cccc(N(C)C)c2)N2CCCC2)cc1 (stereo not given)
  -9% | 0 | -2.7% | -1%
CCN(CC)CC(=O)Nc1cc(N(C)C)nc2ccccc12
  -3% | 9 | -0.2% | -11%
Cc1cc(C)nc(SCCC(=O)Nc2cccc3ccccc23)n1
  -9% | -5 | -0.1% | -4%
C=CCC1c2cccc(C(=O)O)c2C(=O)N1c1cccc(OC)c1 (stereo not given)
  -5% | 2 | 3.7% | -16%
COc1ccc(N2CCN(C(C)C(=O)N3CCc4ccccc43)CC2)cc1 (stereo not given)
  2% | . | 5.6% | -18%
Cc1cc(C)c(NC(=O)NC2CCCCC2)c(C)c1
  -4% | -9 | 0.2% | -16%
CC(=O)N1CCN(CC(=O)NC(=O)Nc2ccc3c(c2)OCCO3)CC1
  . | . | 1.5% | -10%
CC1CCCCC12NC(=O)N(CC(=O)NC1CCCc3ccccc31)C2=O (stereo not given)
  1% | 2 | 3.0% | 16%

Whole records, looked up by structure. Screens in order: miR-21 FLuc | GLA inh pH 4.5 | Rango complex inh | Rango release inh
Record of O=C1CSc2ccc(S(=O)(=O)NCc3ccc(F)cc3)cc2N1 → -1% | . | 0.4% | 13%
Record of C=CCN1C2CCCC1CC(NC(=O)Nc1cccc(C(C)=O)c1)C2 (stereo not given) → -10% | 1 | -0.8% | -2%

Going on with the list:
Value order – miR-21 FLuc | GLA inh pH 4.5 | Rango complex inh | Rango release inh
Cc1nc2ccccn2c1C(=O)N=Nc1c(O)[nH]c2ccccc12
  -13% | 0 | -1.9% | -3%
Cc1ccc(S(=O)(=O)N2[C@@H](c3ccccc3)C(C(=O)O)=CC[C@H]2c2ccc(Cl)c(Cl)c2)cc1
  . | . | -1.5% | 18%
COc1ccc(CNC(=O)c2ccc(S(=O)(=O)N3CC(C)CC(C)C3)cc2)cc1OC (stereo not given)
  . | . | 7.7% | 0%
COc1ccc(CNC(=O)C(NS(=O)(=O)c2cccc3nsnc23)C(C)C)cc1 (stereo not given)
  1% | . | -3.6% | 1%
O=[N+]([O-])c1ccc2c(c1)C(=NO)c1cc(F)ccc1-2
  . | . | 1.6% | -4%
O=C(NCCN1CCN(C(=O)c2cccs2)CC1)C(=O)Nc1ccc(Br)cc1
  -1% | 0 | -2.7% | 1%
CC[C@]12c3[nH]c4cc(-c5ccco5)ccc4c3CCN1C(=O)[C@@H](CC(=O)NCCN1CCOCC1)C[C@@H]2C(=O)N1CCN(C(=O)C2CC2)CC1
  . | . | -5.4% | 12%
Cc1ncc([N+](=O)[O-])n1CC(=O)Nc1cc(Cl)ccc1Cl
  0% | . | -2.4% | 1%
COc1cccc([C@@H]2CC=C(C(=O)O)[C@H](c3ccc(C)cc3)N2S(=O)(=O)c2ccc(C)cc2)c1
  . | . | -1.6% | 13%
